Source: PubChem BioAssay
CDC25B-CDK2 inh: human CDC25B-CDK2/CyclinA binding inhibition. AID 1259370. z-score (test concentration not listed). 0.72% of 94,000 active. HTRF CDC25B-CDK2/CyclinA binding, anti-His/anti-Flag; hits give high values. P30305+P24941;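 also: score is relative to mean and SD of negative controls; strong numbers were not always called active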
TAR Tat displ: HIV-1 TAR-Tat binding disruption. z-score (test concentration not listed). AID 1259389. 0.6% of 100,000 active. HIV-1 TAR RNA, Tat peptide displacement FRET; hits give high values;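 also: score is relative to mean and SD of negative controls; some compounds called inactive have numbers as strong as hits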
Numbers without * were called inactive; . = not tested or not shown.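 The calls were made as follows: active = z-score from 3 up in half or more of its runs; inactive = the rest.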

SMILES	CDC25B-CDK2 inh	TAR Tat displ
Cc1ccc(C)c(S(=O)(=O)N(CCS(=O)(=O)N2CCNCC2)C(C)C)c1	.	3.69
CCCN1C(=O)CCc2cc(NS(=O)(=O)CC)ccc21	.	1.52
Cc1cc(N(CCO)CCO)n2nc(-c3ccccc3)nc2n1	-0.34	2.59
CCOC(=O)C1CCN(C(=O)c2cc(S(=O)(=O)N3CCOCC3)cn2C)CC1	.	1.59
O=C1CC(c2ccc(F)cc2)c2scc(-c3ccc(Cl)cc3)c2N1 (stereo not drawn)	.	1.03
CCOC(=O)c1c(C)n(CCOc2ccccc2)c2c1cc(O)c1ccccc12	-0.83	-1.72
CCOc1ccc(C2C3=C(CCCC3=O)Nc3ncnn32)cc1 (stereo not drawn)	-0.53	1.88
COc1cc(C)nc(NC(=O)Nc2ccc(Cl)cc2)n1	-1.04	0.22
Cc1nc(-c2cccs2)c(CC(=O)N2CCCC2)s1	-1.27	-0.62
Cc1nc2sccn2c(=O)c1CCC(=O)O	-0.82	-2
COc1cc(OC)c(NS(=O)(=O)c2c(C(=O)N3CCCC3)c(C)n(C)c2C)cc1Cl	.	-0.68
Clc1ccccc1CNCc1ccc2c(c1)OCO2	-1.56	-0.94

SMILES	CDC25B-CDK2 inh	TAR Tat displ
Cc1ccc(S(=O)(=O)Nc2cccc3cccnc23)cc1	-2	.
Cc1ccccc1OCc1nc(-c2ccc(Br)cc2)no1	-0.62	.
COc1ccc(C(=O)N2c3nc(-c4cccnc4)nn3C3(CCCCC3)[C@@H]3CCCC[C@@H]32)cc1	-1.57	2.08
O=c1ccc(-c2ccc(S(=O)(=O)NCc3ccc(F)cc3)o2)n[nH]1	.	0.18
COC(=O)c1oc2ccc(Cl)cc2c1N	-0.81	.
CC(C)C[C@H](N)c1nnc(SCC(=O)c2ccc(Cl)cc2)o1	0.67	0.43
CC(=O)N1CCc2cc(S(=O)(=O)C(C)CC(=O)NCCC(C)C)ccc21 (stereo not drawn)	.	0.57
CCN1CCN(Cc2c(O)ccc3c(=O)c(Oc4cc(C)cc(C)c4)c(C)oc23)CC1	0.12	-0.25
N#Cc1sc2nc(N3CCOCC3)c3c(c2c1N)CCCC3	-1.04	.
Cc1cc(-c2ccc(C)c(S(=O)(=O)Nc3ccc(-c4ccno4)cc3)c2)on1	.	-0.54
Clc1ccc(CN2CCN(Cc3ccco3)CC2)cc1	0.24	1.62
COc1cc(NC(=O)NC2COc3ccc(OC)cc3C2)cc(OC)c1 (stereo not drawn)	.	0.82

SMILES	CDC25B-CDK2 inh	TAR Tat displ
O=C(NCC1CCN(CCc2cccs2)CC1)c1noc2c1CCc1sccc1-2	.	0.11
Cc1[nH]n2cnnc2c(=O)c1[N+](=O)[O-]	0.95	-0.75
CCOC(=O)C1CCN(S(=O)(=O)c2ccc(-c3ccc(=O)[nH]n3)s2)CC1	.	3.3
CCOC(=O)C1CCN(c2c(N3CCC(C)CC3)c(=O)c2=O)CC1	-1.61	2.37
Cc1nc(NC2=NCN(Cc3ccco3)CN2)nc2ccccc12	-1.24	1.81
CCSc1nn(CC(=O)NCc2ccccc2)c2nc3c(c(=O)n12)C(C)(C)Cc1ccccc1-3	-0.71	0.01
COc1ccccc1C1C2=C(CC(C)(C)CC2=O)Nc2nc(SCC(=O)c3ccccc3)nn21 (stereo not drawn)	-0.69	1.76
CCCCC(=O)OCc1cc(=O)n2oc(C)cc2n1	.	0.61
COc1cc(C2C(C(=O)OCc3ccccc3)=C(C)NC3=C2C(=O)CC(C)(C)C3)cc(Cl)c1O (stereo not drawn)	-0.5	0.46
CCCCSc1nc2n(n1)C(c1ccc(OC)cc1)C1=C(CC(C)(C)CC1=O)N2 (stereo not drawn)	-0.99	-0.96
Cc1cc(NC(=O)NC2COc3ccccc3C2)ccc1Br (stereo not drawn)	.	1.84
Cc1sc(-c2c(F)cccc2F)nc1O	-0.57	.

SMILES	CDC25B-CDK2 inh	TAR Tat displ
c1ccc(Cn2c3ccccc3c3ccccc32)cc1	-0.8	.
CCCCSCCCNC(=O)C(C)N1C(=O)CCn2nc(C)cc21 (stereo not drawn)	.	2.58
CC1CCN(S(=O)(=O)c2ccc3c(c2)oc(=O)n3CC(=O)NC(C)(C)C)CC1	0.99	.
CCCSc1nc2c(c(=O)[nH]1)C(c1cccnc1)C(C(=O)OC)=C(C)N2 (stereo not drawn)	-0.24	0.58
COc1ccc2c(c1)CC(NC(=O)NCc1cccs1)CO2 (stereo not drawn)	.	1.24
CCc1ccccc1NC1=NS(=O)(=O)C(c2cccc(Cl)c2)=C1C	-1.64	-0.24
CC1(C)Cc2c(c(N3CCOCC3)nc3sc4c(=O)n(-c5ccccc5Cl)cnc4c23)CS1	1.99	-0.21
CSc1cccc(NC(=O)Cn2nc3c4scc(-c5ccc(F)cc5)c4ncn3c2=O)c1	.	0.28
CN(C)c1ccc(C2=NCCCN2)c(SCc2cccc(C(F)(F)F)c2)c1	-2.09	.
CC(C)c1ccc(S(=O)(=O)c2nnn3c2nc(N2CCOCC2)c2ccccc23)cc1	1.25	0.84
O=S(=O)(c1ccc(-c2noc(-c3cc4cc(Cl)ccc4[nH]3)n2)cc1)N1CCCCC1	.	0.8
CCOc1ncnc2c1[nH]c1ccccc12	-0.01	1.71

SMILES	CDC25B-CDK2 inh	TAR Tat displ
Cc1nn(-c2nc3ccccc3s2)c2c1C(c1c(C)sc3ccccc13)CC(=O)N2 (stereo not drawn)	.	1.16
CCOC(=O)C1C2C=CC3(CN(c4cccc(Cl)c4)C(=O)C13)O2 (stereo not drawn)	-1.07	0.11
Cc1cc(C)c(NS(=O)(=O)c2ccc(N3CCCCS3(=O)=O)cc2)c(C)c1	.	0.6
Cc1cc(-c2cccs2)c2c(N)c(C(=O)c3ccccc3)sc2n1	1.55	-3.12
O=C(Nc1ccc2nc3n(c(=O)c2c1)CCCCC3)C(=O)N1CCc2ccccc21	-1.09	1.82
Cc1cc(C)c(-c2c(Nc3ccc(C)c(Cl)c3)c(=O)c2=O)cc1C	.	0.2
CCC(=O)N1CCc2cc(S(=O)(=O)CCC(=O)NC3CCCCCC3)ccc21	-2.95	.
COc1ccc(C(=O)OCc2cc(=O)n3ccsc3n2)cc1	.	1.1
CSc1ccc(CNc2nc3nc4c(c(=O)n3[nH]2)CCCC4)cc1	-0.84	0.2
CCOC(=O)C1CCN(c2c(Nc3ccc4c(c3)OCCO4)c(=O)c2=O)CC1	-0.9	1.04
CCN1CCN(CCN=C2NS(=O)(=O)C(c3ccc(OC)cc3)=C2C)CC1	-0.51	0.89
O=C(Nc1cccnc1)C1CCCN(c2ncnc3c2nc2n3CCCCC2)C1 (stereo not drawn)	.	0.45

SMILES	CDC25B-CDK2 inh	TAR Tat displ
N#Cc1c(-c2ccco2)cc(C2CC2)nc1SCC(N)=O	0.36	.
CC1=C(c2ccccc2)S(=O)(=O)N=C1Nc1ccc(Br)c(C)c1	-2.36	-1.53
CN1C(=O)c2ccccc2Sc2ccc(NC(=O)N3CCCC3)cc21	-1.03	0.94
Cc1ccc(CN(C(=O)C(C)Oc2ccc(Cl)c(C)c2)C2CCS(=O)(=O)C2)o1 (stereo not drawn)	2.25	1.96
O=C(c1ccc2c(=O)n3c(nc2c1)CCCC3)N1CCCC1	.	1.53
Cc1cc(C)cc(C(=O)Nc2c(C)nc3cc(C)ccn3c2=O)c1	.	1.48
Cc1ccc(NC(=S)C(C#N)C(=O)N2CCCC2)c(C)c1 (stereo not drawn)	0.73	.
CCOC(=O)N1CCC(NC(=O)C2CCCN(c3ncnc4c3sc3cccc(F)c34)C2)CC1 (stereo not drawn)	-21	0.79
Cc1nn(CC(=O)N2CCCC2)c(C)c1S(=O)(=O)N1CCC(C(=O)N2CCc3ccccc32)CC1	.	0.25
Nc1nc2ccc(Cc3nc4ccccc4o3)cc2s1	-1.09	0.84
CN1CCN(c2nc3c(c(=O)n(C)c(=O)n3C)n2CC(O)c2ccccc2)CC1 (stereo not drawn)	-2.17	2.77
Cc1ccc(Cl)cc1-n1ncc2c(Nc3ccc4c(c3)OCO4)ncnc21	.	2.12

SMILES	CDC25B-CDK2 inh	TAR Tat displ
Cc1cc(NC(=O)c2ccc3nonc3c2)on1	-0.79	.
CCOc1ccc(-c2nc(CN3N=NC4C(=O)N(c5cc(C)cc(C)c5)C(=O)C43)c(C)o2)cc1 (stereo not drawn)	.	-0.51
CC(C)NC(=O)N1CCc2sccc2C1C (stereo not drawn)	-1.26	.
Cc1ccc(-n2nnnc2SCCOc2ccc(C)c(C)c2)cc1	2.18	1.92
O=c1ncc(Oc2ccc(Cl)cc2Cl)c[nH]1	-0.37	.
COc1ccc2c(c1)C(C)=CC(C)(C)N2C(=O)Nc1ccc(Cl)cc1	-0.93	-0.64
CCOc1ccccc1NC(=O)Cn1nc2nc(C)cc(C)n2c1=O	.	-0.14
Cc1ccc(Nc2c(-c3ccc(C)o3)nc3ccc(Br)cn23)cc1	-1.66	-1.55
N#Cc1c2c(c(N3CCCC3)[nH]c1=S)CCCC2	-1.08	-0.97
CCOC(=O)Cc1ccc(NC(=O)NC(C)c2c(-n3cccc3)sc(C)c2C)cc1 (stereo not drawn)	-0.39	-1.58
COc1ccc(OCC(=O)Nc2nc3ccc(OC)cc3s2)cc1	.	-0.06
CC(C)Oc1ccc(C2(C)NC(=O)NC2=O)cc1 (stereo not drawn)	0.11	0.86

SMILES	CDC25B-CDK2 inh	TAR Tat displ
Cn1c2c(c(=O)[nH]c1=O)C(c1ccc(F)cc1)C1=C(N2)c2ccccc2C1=O (stereo not drawn)	-2.25	-6.02
CCNc1cc(N2CCN(C(=O)OCC)CC2)c2noc3c2c1C(=O)c1ccccc1-3	-2.08	0.13
CN(C)CCCN=C(NO)c1ccc(Cl)cc1Cl	-1.66	.
Cc1cc(C)n(-c2cccc(Cl)c2C#N)n1	-1.13	.
Cc1cccc(CNc2nc(N3CCOCC3)nc3c2cnn3C)c1	.	1.5
CCOc1cc(C2C(C(=O)c3ccco3)=C(O)C(=O)N2CC2CCCO2)ccc1O (stereo not drawn)	-1.11	1.25
CN(C(=O)c1ccc(N2C(=O)C(C)(C)CS2(=O)=O)cc1)C1CCS(=O)(=O)C1 (stereo not drawn)	-2.26	1.02
C(#Cc1ccccc1)CN1CCOCC1	.	0.68
O=c1c2ccccc2ncn1Cc1noc(-c2cccs2)n1	.	1.18
O=C(CSCc1cnn(-c2ccccc2)c1-n1cccc1)NC1CCCCC1	-1.5	-1.27
CC1=C(C(=O)NCCN(C)C2CCCCC2)C2(CCCCC2)OC1=O	.	0.52
COc1cccc(-c2nc(-c3cc4cc(C)ccc4[nH]c3=O)no2)c1	1.29	0.22

Whole records, quoted from the list.
Profile of `Cn1c2c(c(=O)[nH]c1=O)C(c1ccc(F)cc1)C1=C(N2)c2ccccc2C1=O` (stereo not drawn) : CDC25B-CDK2 inh = -2.25; TAR Tat displ = -6.02
Profile of `Cc1cccc(CNc2nc(N3CCOCC3)nc3c2cnn3C)c1` : CDC25B-CDK2 inh = .; TAR Tat displ = 1.5

2 neighbouring compounds from above:
SMILES	CDC25B-CDK2 inh	TAR Tat displ
CC1=C(C(=O)NCCN(C)C2CCCCC2)C2(CCCCC2)OC1=O	.	0.52
COc1cccc(-c2nc(-c3cc4cc(C)ccc4[nH]c3=O)no2)c1	1.29	0.22

Next section
SMILES	CDC25B-CDK2 inh	TAR Tat displ
O=C(C1CCC1)N1CCc2cc(S(=O)(=O)N3CCN(Cc4ccc5c(c4)OCO5)CC3)ccc21	.	1.87
Cc1nc2c(-c3ccccc3)cnn2c(N)c1-c1ccccc1	-0.97	1.59
CCCCN(C(=O)c1nn(C)c2c1COc1ccccc1-2)C1CCN(C(C)=O)CC1	-0.86	1.5
Cc1ccc(CNC(=O)CCC(=O)N2CC3CCCN3c3ccccc32)o1 (stereo not drawn)	.	-4.02
O=C(NC1CCCCC1)c1ccc2c(c1)nc1n2CCOC1	.	-0.36
O=C(Nc1onc2c1CCCC2)C1COc2ccccc2O1 (stereo not drawn)	-2.83	-0.45
Cn1ncc2c(Nc3ccc(Cl)cc3)nc(NCc3ccccc3)nc21	.	-1.28
CC1Oc2ccccc2C(=O)N(CC(=O)c2ccccc2)C1=O (stereo not drawn)	-0.17	0.34
CC(C)CCN1CC(C)C(O)(c2ccccc2)CC1C (stereo not drawn)	-1.29	1.07
O=C(O)c1cccc2c1NC(c1ccccc1Cl)C1C3CCC(C3)C21 (stereo not drawn)	-1.42	2.79
CCCCC(CC)C(=O)n1nc(-c2ccc(C)cc2)nc1N (stereo not drawn)	-0.06	1.46
COc1ccccc1C(=O)OCc1cc(=O)n2nc(C3CCCCC3)sc2n1	.	-0.66

SMILES	CDC25B-CDK2 inh	TAR Tat displ
O=C(c1ccccn1)N(Cc1ccco1)C1(C(=O)Nc2ccc(Br)cc2)CCCCC1	-1.93	0.46
Cc1cccc(Cn2cc3c(=O)[nH]nc-3c3ccccc32)c1	-0.86	1.44
Cc1cc(C)c2c(-n3cccc3)nn(CC(=O)NC3CCCC3)c2n1	.	0.85
C/C(=N\N)C1(O)CCC2C3CCC4=C/C(=N\N)CCC4(C)C3CCC21C (stereo not drawn)	-2.12	.
CCOC(=O)c1c(C)oc2c1c(C(c1ccccn1)N1CCN(C)CC1)c(O)c1ccccc12 (stereo not drawn)	-4.79	.

Shown with each value named: entries from further up.
CCOc1ncnc2c1[nH]c1ccccc12
  CDC25B-CDK2 inh: -0.01	TAR Tat displ: 1.71
O=C(Nc1ccc2nc3n(c(=O)c2c1)CCCCC3)C(=O)N1CCc2ccccc21
  CDC25B-CDK2 inh: -1.09	TAR Tat displ: 1.82
CC(C)Oc1ccc(C2(C)NC(=O)NC2=O)cc1 (stereo not drawn)
  CDC25B-CDK2 inh: 0.11	TAR Tat displ: 0.86
Nc1nc2ccc(Cc3nc4ccccc4o3)cc2s1
  CDC25B-CDK2 inh: -1.09	TAR Tat displ: 0.84
